Screening data deposited in PubChem by National Center for Advancing Translational Sciences (NCATS).
Lassa entry = qHTS for Inhibitors of binding or entry into cells for Lassa Virus; 18,000 compounds, 4.1% hits; AID 720533, 2013; Lassa virus pseudotyped entry inhibition, cell-based qHTS; control for the full effect not named in the record; many of its hits are not listed in these tables; Potency, µM (top dose mostly 49.2 µM), for the others: at the top dose activity change, negative = inhibition, hits mostly inhibitors; active = well fitted inhibition curve with a large enough effect; inconclusive = small, poorly fitted or top-dose-only effect; inactive = no such curve, though single readings can be large or run the other way; tested in HEK293 cells; note: luciferase read-out
Marburg entry = qHTS for Inhibitors of binding or entry into cells for Marburg Virus; 18,000 compounds, 6.5% hits; AID 720532, 2013; Marburg virus pseudotype entry/binding inhibition, cell-based; control for the full effect not named in the record; many of its hits are not listed in these tables; Potency, µM (titrated, usually from 49.2 µM), inactives show at the top dose activity change, negative = inhibition, most hits filed as inhibitors; active means well fitted inhibition curve with a large enough effect; inconclusive means small, poorly fitted or top-dose-only effect; inactive means no such curve, though single readings can be large or run the other way; tested in HEK293 cells; note: luciferase read-out
Numbers without * were called inactive; & = joins results of further samples; [ ] = dose if it differs, or a comment. % is set by controls: 0 for no effect and ±100 for the full control effect; potency is the fitted concentration of half-maximal effect. These rows are one share of the data, so the mix of outcomes need not match the whole.

Screening c1ccc2sc(-c3cc4c(c(OC5CCOC5)c3)OCCN(Cc3cccn3-c3nccs3)C4)nc2c1 (stereo unspecified) returned Lassa entry -4.8% and Marburg entry 0.355µM*.
For CCCCCCCCCCCCSCCOCCO the results were Lassa entry -13.2% and Marburg entry 17.7%.
`O=C(O)CCCC/C=C\C[C@@H](O)/C=C/C=C/C=C\[C@@H](O)CCCC(=O)O` gave Lassa entry -8.6% and Marburg entry 1.5%.
For O=c1cc(-c2ccccc2)[nH]c2ccccc12 the results were Lassa entry -15.3%[107 µM] and Marburg entry inconclusive.
For COCOc1cc(OC)ccc1C(=O)C=Cc1ccc([N+](=O)[O-])cc1 the results were Marburg entry -18.9%[8.59 µM].
Cc1ccc(C(C)C)c2oc(=O)cc(-c3ccc(-c4ccc(C(F)(F)F)cc4)cc3)c12 was read as Lassa entry 4.4% and Marburg entry 15.9%.
COC(=O)N[C@H](CC(C)=O)c1ccc2c(c1)OCO2 was read as Lassa entry -14.8%[8.59 µM] and Marburg entry -17.1%[8.59 µM].
CC(C)(C)OC(=O)N1CCC(C(=O)Nc2cccc(C(=O)NCCCc3ccccc3)c2)CC1 was read as Lassa entry 4.0% and Marburg entry -16.9%.
Screening COC(=O)C(C(=O)OC)[C@H]1c2ccccc2[C@@H]2C(=C[C@@H](C)[C@H]3C(=O)N(c4ccccc4)C(=O)[C@H]32)N1C(=O)OC returned Lassa entry -9.7%[8.59 µM] and Marburg entry 25.3%[8.59 µM].
Cc1ccc(C(=O)Nc2cccc(-c3nc(CNC(=O)C4(C)CC4)c(C)o3)c2)s1 was read as Lassa entry -11.4% and Marburg entry 20.9%.
`C=CCc1cc(OC)c2c(c1OC)OCO2` gave Lassa entry -4.5% and Marburg entry 13.6%.
`CCNCC(O)c1cccc(O)c1` (stereo unspecified) gave Lassa entry -0.4%[17.8 µM] and Marburg entry -15.4%[17.8 µM].
Screening CCN1C(=O)[C@@H]2[C@H]3[C@H](O)[C@H](O)CC(=NO[C@H](C)c4cn([C@@H]5COC[C@@H]5O)nn4)[C@@H]3CC[C@H]2C1=O returned Lassa entry 2.9%[8.59 µM] and Marburg entry -32.4%[8.59 µM].
COC(=O)[C@H]1[C@H]2C[C@@H]3c4[nH]c5cc(OC)ccc5c4CCN3C[C@H]2C[C@H](OC)[C@@H]1OC was read as Lassa entry inconclusive and Marburg entry inconclusive.
CN(C)Cc1ccccc1-c1cc(N(C)C)ncn1 was read as Lassa entry -2.7% and Marburg entry -17.5%.
Cc1[nH]c(=O)n(C(C)(C)C)c(=O)c1Cl was read as Lassa entry 1.3% and Marburg entry 1.9%.
For COC(=O)[C@@H]1[C@@H](c2cccc(C(F)(F)F)c2)NC(=O)N(Cc2ccccc2)[C@@H]1C the results were Lassa entry -22.3%[8.59 µM] and Marburg entry -19.4%[8.59 µM].
Screening C[C@@H]1CN(Cc2ccc3c(c2)CN(Cc2cccc4c2OCO4)CCO3)C[C@H](C)O1 returned Lassa entry -1.4% and Marburg entry -28.5%.
`O=C1O[C@H]2[C@H](O)[C@@H]1OC(O)[C@H]2O` (stereo partly specified) gave Lassa entry 0.4% and Marburg entry 18.0%.
`COc1ccc(CNS(=O)(=O)CCNCCc2ccccc2)cc1` gave Lassa entry 22.7% and Marburg entry 19.7%.
`O=C1Nc2ccc(Cl)cc2C(c2ccccc2Cl)=NC1O` (stereo unspecified) gave Lassa entry -14.9% and Marburg entry inconclusive.
Cc1ccc2oc(-c3ccccc3)c(O)c(=O)c2c1 was read as Lassa entry 2.3% and Marburg entry 67.4%[activator].
Screening COC(=O)CCC(=O)OC1(C)C(=O)C=C2C=C(CCCNC(=O)OC(C)(C)C)OC=C2C1=O (stereo unspecified) returned Lassa entry -7.5% and Marburg entry -23.3%.
Screening COC(=O)[C@]1(C=C2c3ccccc3C[C@H](OC)[C@@H]2C)[C@@H]2CC=C[C@@H]21 returned Lassa entry -6.4%[8.59 µM] and Marburg entry -7.8%[8.59 µM].
`C=C1C(=O)O[C@@H]2[C@H]3O[C@]3(C)CCC=C(C)CC[C@@H]12` gave Lassa entry 22.4µM* and Marburg entry 15.8µM*.
`CC[C@H](C)[C@@H](C(=O)OC)N1Cc2ccccc2Oc2cc(Br)ccc2S1(=O)=O` gave Lassa entry 3.6% and Marburg entry -25.9%.
`C=CCC(C)(O)c1ccccc1` (stereo unspecified) gave Lassa entry -8.2% and Marburg entry 11.7%.
CCCC[C@@H](C)/C=C(C)/C=C(\C)C(=O)NC1=C[C@@](O)(/C=C/C=C/C=C/C(=O)NC2=C(O)CCC2=O)[C@@H]2O[C@@H]2C1=O was read as Lassa entry 15.8µM* and Marburg entry 5.62µM*.
CCSC(=N)N was read as Lassa entry 21.4%&-9.0% and Marburg entry 5.4%&-22.2%.
Screening CN(CCCN1c2ccccc2CCc2ccccc21)CC(=O)c1ccc(Cl)cc1 returned Lassa entry inconclusive and Marburg entry 7.94µM*.
`CS(=O)(=O)CCNCc1ccc(-c2ccc3ncnc(Nc4ccc(OCc5cccc(C(F)(F)F)c5)cc4)c3c2)o1` gave Lassa entry inconclusive and Marburg entry inconclusive.
Screening CCCCC/C=C\C\C=C/C=C/C=C/[C@@H](O)[C@@H](O)CCCC(=O)O returned Lassa entry -12.9% and Marburg entry -9.8%.
COc1cc2c(c(OC)c1OC)CC(C)=C(C)CC2NC(=O)C(F)(F)F (stereo unspecified) was read as Lassa entry 22.1%[8.59 µM] and Marburg entry -9.1%[8.59 µM].
Cc1c(F)c(F)c(COC(=O)C2C(/C=C(\Cl)C(F)(F)F)C2(C)C)c(F)c1F (stereo unspecified) was read as Lassa entry -2.7% and Marburg entry -9.8%.
Screening CC(=O)OC[C@H]1O[C@H](c2cc(C)cc(C)c2)C=C[C@H]1OC(C)=O returned Lassa entry -27.1%[8.59 µM] and Marburg entry 26.0%[8.59 µM].
For COC(=O)C1OC(=O)C2OC23[C@]2(C)C(O)CC4C(C)(C)C(OC(C)=O)CC(OC(C)=O)[C@@]4(C)C2CC[C@@]13C (stereo partly specified) the results were Lassa entry -2.1%&7.4% and Marburg entry 5.5%&-4.1%.
Screening NC(=O)c1ccc(N)nc1 returned Lassa entry -19.6% and Marburg entry -13.7%.
Cc1cnc(SCC2CCCO2)nc1C1CCCN(C(=O)c2ccc(S(N)(=O)=O)cc2)C1 (stereo unspecified) was read as Lassa entry 0.4% and Marburg entry 3.1%.
Screening O=c1cc(CN2CCOCC2)c2c(ccc3ccccc32)o1 returned Lassa entry 19.5% and Marburg entry 23.8%.
`CS(=O)(=O)Nc1ccc(Br)cc1` gave Lassa entry -7.6% and Marburg entry 22.5%.
CC1(C)C(=O)C=C[C@@]2(C)C1C=C[C@@]1(C)C2CC[C@@]2(C)C(c3ccoc3)OC(=O)C3OC312 (stereo partly specified) was read as Lassa entry inconclusive and Marburg entry 7.94µM*.
NCCC[C@@H](CC(=O)N[C@@H]1CCCC[C@H]1C(=O)N[C@H](CC(=O)N[C@@H](CCC(=O)O)CC(=O)O)Cc1c[nH]c2ccccc12)NC(=O)C[C@H](Cc1c[nH]c2ccccc12)NC(=O)[C@@H]1CCCC[C@H]1N was read as Lassa entry -5.9% and Marburg entry 7.2%.
For COC(=O)c1ccccc1C(=O)OC the results were Lassa entry -5.8% and Marburg entry -3.7%.
Screening Cc1ccc2c(Br)cc(Br)c(O)c2n1 returned Lassa entry inconclusive and Marburg entry inconclusive.
`Cc1cccc(C)c1NC(=O)C[N+](C)(C)C` gave Lassa entry -7.7% and Marburg entry 8.3%.
O=c1cc(-c2ccc(O)c(O)c2)oc2cc(O)cc(O)c12 was read as Lassa entry -1.9% and Marburg entry 15.3%.
Screening CS(=O)(=O)CCNCc1coc(-c2ccc3ncnc(Nc4ccc(OCc5ccccc5)cc4)c3c2)c1 returned Lassa entry -68.6% and Marburg entry inconclusive.
Screening O=C(Nc1cccc(C(=O)N2CCCC2)c1)C1CC1 returned Lassa entry -5.1% and Marburg entry 42.5%[activator].
For CC(CCN1CCCCc2nc(C)c(C)cc21)=NO[C@@H](C)c1cn([C@H](CO)Cc2ccccc2)nn1 the results were Lassa entry 0.2%[8.59 µM] and Marburg entry -12.4%[8.59 µM].
`CC(=O)NCCNc1ncnc2ccc(-c3ccc(C(=O)N(C)C)cc3)cc12` gave Lassa entry -7.2% and Marburg entry -11.6%.
Screening NC(C(=O)O)c1ccc(P(=O)(O)O)cc1 (stereo unspecified) returned Lassa entry -0.9% and Marburg entry 5.1%.
CCCc1nc2cccnc2n1C1CCN(C(=O)Cn2nccc2C)CC1 was read as Lassa entry 13.0% and Marburg entry -19.1%.
C[C@@H]1/C(=N/O)CC2C[C@@H]1C2(C)C was read as Lassa entry 3.8% and Marburg entry 8.5%.
For CCOC(=O)[C@]12C[C@]3(C)CCN(C(=O)N[C@@H]1c1ccccc1)[C@@H]32 the results were Lassa entry -19.3%[8.59 µM] and Marburg entry 33.8%[8.59 µM].
`CCCCCCCCCC(=O)N[C@H](CN1CCOCC1)[C@H](O)c1ccccc1` gave Lassa entry -14.1%&-4.6% and Marburg entry 13.1%&-9.3%.
Screening Cc1ccc(C(C)C)cc2c(C)ccc1-2 returned Lassa entry 4.4%&-7.5% and Marburg entry -3.4%&13.4%.
Screening CCOC(=O)CCCNC(=O)N1CCc2nc(-c3ccc(OC)cc3C)c3c(c2C1)CO[C@@H](c1ccccc1)C3 returned Lassa entry 2.2%[8.59 µM] and Marburg entry -4.8%[8.59 µM].
Cc1cc2c(c(-c3cnccn3)c1)OC(CNC(=O)c1c(F)cccc1Cl)C2 (stereo unspecified) was read as Lassa entry -12.3% and Marburg entry inconclusive.
COc1c2c(cc3c1C(c1c(O)c4ccccc4oc1=O)N(C)CC3)OCO2 (stereo unspecified) was read as Lassa entry -7.5% and Marburg entry 4.4%.
Cc1cc(C(=O)Nc2cccc(-c3nc(CNC(=O)c4ccccc4C(F)(F)F)c(C)o3)c2)c(C)o1 was read as Lassa entry inconclusive and Marburg entry -28.0%.
For CS(=O)(=O)c1ccc(-c2nc(-c3ccc(F)cc3)c(-c3ccncc3)[nH]2)cc1 the results were Lassa entry -5.4% and Marburg entry inconclusive.
`Cc1cccc(CN2CCN(C3CN(Cc4cn(Cc5ccccc5C(F)(F)F)nn4)S(=O)(=O)C3)CC2)c1` (stereo unspecified) gave Lassa entry 22.1% and Marburg entry 6.7%.
Screening O=C(/C=C/C#Cc1cccc(NS(=O)(=O)c2ccccc2)c1)NO returned Lassa entry 10µM* and Marburg entry inconclusive.
Screening CN1CCN(C2CN(Cc3cn(Cc4ccccc4C(F)(F)F)nn3)S(=O)(=O)C2)CC1 (stereo unspecified) returned Lassa entry 18.8% and Marburg entry 14.9%.
For COC(=O)[C@H](Cc1ccccc1)N1CC(N2CCCC2)CS1(=O)=O (stereo partly specified) the results were Lassa entry 16.1% and Marburg entry -4.5%.
For CC(=O)c1cc2c(cc1O)OC(C)(C)C=C2 the results were Lassa entry 2.7% and Marburg entry 42.6%[activator].
COc1cc(=O)n2c(c1C(=O)N(C)Cc1nccs1)CCN(Cc1c(F)ccc(F)c1F)CC2 was read as Lassa entry 5.6% and Marburg entry 6.6%.
`NC(=O)c1cc[n+](CC2=C(C(=O)O)N3C(=O)C(NC(=O)C(c4ccccc4)S(=O)(=O)[O-])C3SC2)cc1` (stereo unspecified) gave Lassa entry -0.9% and Marburg entry 1.1%.
For Cc1ccc(CN2CC(N3CCC(Cc4ccccc4)CC3)CS2(=O)=O)cc1 (stereo unspecified) the results were Lassa entry 11.4% and Marburg entry 6.4%.
Screening CCC(C)c1ccc(O[C@@H]2O[C@H](CO)[C@@H](O)[C@H](O)[C@H]2NC(C)=O)cc1 (stereo partly specified) returned Lassa entry 8.7% and Marburg entry 14.3%.
Screening CNCC(O)c1cccc(O)c1 (stereo unspecified) returned Lassa entry 6.8% and Marburg entry 1.8%.
Screening CCN1C(=NCCc2c[nH]c3ccccc23)NC(c2ccccc2)C(C(=O)OC)=C1C (stereo unspecified) returned Lassa entry 8.5%&1.1%[8.59 µM] and Marburg entry inconclusive.
For Cc1cnc(CNc2ncncc2-c2ccccc2C#N)cn1 the results were Lassa entry -7.8% and Marburg entry 1.4%.
Screening CC1(C)S[C@@H]2[C@H](NC(=O)C3(N)CCCCC3)C(=O)N2[C@H]1C(=O)O returned Lassa entry -0.6%[17.8 µM] and Marburg entry -4.2%.
COC(=O)NC(c1ccccc1)c1c[nH]c2ccccc12 (stereo unspecified) was read as Lassa entry -12.5% and Marburg entry -9.9%.
For CCCCOC(=O)CC(CC(=O)OCCCC)(OC(C)=O)C(=O)OCCCC the results were Lassa entry -10.7% and Marburg entry -5.2%.
For Cc1cc(O)c(C)c(O)c1C(=O)O the results were Lassa entry -1.0% and Marburg entry -6.3%.

Six compounds picked at random from those above, as already listed:
For CC(CCN1CCCCc2nc(C)c(C)cc21)=NO[C@@H](C)c1cn([C@H](CO)Cc2ccccc2)nn1 the results were Lassa entry 0.2%[8.59 µM] and Marburg entry -12.4%[8.59 µM].
Screening O=c1cc(CN2CCOCC2)c2c(ccc3ccccc32)o1 returned Lassa entry 19.5% and Marburg entry 23.8%.
Screening C[C@@H]1CN(Cc2ccc3c(c2)CN(Cc2cccc4c2OCO4)CCO3)C[C@H](C)O1 returned Lassa entry -1.4% and Marburg entry -28.5%.
CCSC(=N)N was read as Lassa entry 21.4%&-9.0% and Marburg entry 5.4%&-22.2%.
COC(=O)NC(c1ccccc1)c1c[nH]c2ccccc12 (stereo unspecified) was read as Lassa entry -12.5% and Marburg entry -9.9%.
`C=C1C(=O)O[C@@H]2[C@H]3O[C@]3(C)CCC=C(C)CC[C@@H]12` gave Lassa entry 22.4µM* and Marburg entry 15.8µM*.
